Screening data (PubChem)
TRPV1 potentiator: HTS Assay for Compounds that Act as Potentiators of the Vanilloid Receptor 1; potentiation, % at 8.33 µM; 320,000 tested, 0.02% active; TRPV1-expressing cells, Fluo-8 calcium influx, capsaicin EC20 potentiation; host cell line not named in the record; control for the full effect not named in the record; AID 540277, 2011; active means potentiation above 80%; inconclusive means 30% to 80%; inactive means below 30%; note: 0% is about no effect
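Cells expressing TRPV1 were dye-loaded with Fluo-8 and read kinetically: 10 s baseline, 3 min after compound (agonist portion), then 2 min after EC20 capsaicin (allosteric enhancer portion). Calcium-bound dye fluorescence at 480/520 nm.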
PINK1 expr mod: A Quantitative High throughput Screen to Identify Chemical Modulators of PINK1 Expression; 410,000 tested, 0.2% active; Potency, µM (top dose mostly 76.6 µM), for the others: top-dose activation (PINK1 increase), usual class: activators; PINK1 immunofluorescence, high-content cytometry, 24 h; active = well fitted activation curve with a large enough effect; inconclusive = small, poorly fitted or top-dose-only effect; inactive = flat fitted curve, though single readings scatter; cell line not stated here;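 note: potency is the fitted concentration of half-maximal effect; % of control where 0% means no effect; nearly all actives have a fitted effect of over 65% in size; a mitochondrial uncoupler was the plate control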
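Stable cell line, 250 cells/well, 12 h attachment; compounds pinned at 5 concentrations, 24 h; CCCP control. Fixed with nuclear dye, primary antibodies 12 h at 10 degrees C, secondary plus cell stain; laser-scanning cytometer read.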
Sfp inh: qHTS Assay for Inhibitors of Bacillus subtilis Sfp phosphopantetheinyl transferase (PPTase); 4'-phosphopantetheinyl transferase ffp (Bacillus subtilis), Q9F4F7; Biochemical Sfp PPTase activity, qHTS; Potency, µM, for the others: max response, negative = inhibition, most hits filed as inhibitors; 310,000 tested, 3.5% active; AID 1490, 2009; active = well fitted inhibition curve with a large enough effect; inconclusive = small, poorly fitted or top-dose-only effect, or another doubt; inactive = no such curve, though single readings can be large or run the other way;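 note: the enzyme is Sfp with the accession as filed and its product quenches rhodamine fluorescence; potency is the fitted concentration of half-maximal effect; 0% = enzyme reaction without inhibitor and -100% = no enzyme wells; top concentration of the series not given in the record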
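Fluorescence-quenching assay with 15 nM Sfp, 5 uM rhodamine-CoA and 12.5 uM BHQ-2-labelled ybbR peptide in pH 7.6 Hepes/MgCl2 buffer. Enzyme was pre-incubated with compound for 15 min at room temperature. Rate was taken from the 30-min fluorescence change (525/598 nm).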
CtBP-E1A blk: qHTS Assay for Inhibitors of the CtBP/E1A Interaction | CtBP / adenovirus E1A interaction (AlphaScreen) | AlphaScreen GST-E1A/His-CtBP binding, 1536-well; stronger effect = lower value; control for the full effect not named in the record | activity change, % (no concentration beside the values) | 340,000 tested, 0.49% active; in the data active means activity change below about -65%; inconclusive means about -30% to -65%; inactive means above about -30%; note: % is set by controls: 0 for no effect and ±100 for the full control effect; compound concentration not given in the record
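AlphaScreen with 125 nM GST-E1A and 125 nM His-CtBP (5X stocks) in Tris pH 8.0, 300 mM NaCl, BSA, Tween 20, TCEP. Compounds preincubated 2 h at 37 deg C, then glutathione donor/nickel acceptor beads added for 1 h at 37 deg C in dark.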
Six1-Eya2 blk: qHTS Assay for Inhibitors of the Six1/Eya2 Interaction. Homeobox protein SIX1 (Homo sapiens) + Protein phosphatase EYA2 (Homo sapiens), …. AlphaScreen GST-Six1/His-Eya2 binding, biochemical; stronger effect = lower value; control for the full effect not named in the record. activity change, % (concentration not given with the values). 360,000 tested, 0.56% active. AID 651725, 2012; in the data active = activity change below about -65%; inconclusive = about -30% to -65%; inactive = above about -30%; note: % is set by controls: 0 for no effect and ±100 for the full control effect
Target sequence (O00167 whole entry, looked up): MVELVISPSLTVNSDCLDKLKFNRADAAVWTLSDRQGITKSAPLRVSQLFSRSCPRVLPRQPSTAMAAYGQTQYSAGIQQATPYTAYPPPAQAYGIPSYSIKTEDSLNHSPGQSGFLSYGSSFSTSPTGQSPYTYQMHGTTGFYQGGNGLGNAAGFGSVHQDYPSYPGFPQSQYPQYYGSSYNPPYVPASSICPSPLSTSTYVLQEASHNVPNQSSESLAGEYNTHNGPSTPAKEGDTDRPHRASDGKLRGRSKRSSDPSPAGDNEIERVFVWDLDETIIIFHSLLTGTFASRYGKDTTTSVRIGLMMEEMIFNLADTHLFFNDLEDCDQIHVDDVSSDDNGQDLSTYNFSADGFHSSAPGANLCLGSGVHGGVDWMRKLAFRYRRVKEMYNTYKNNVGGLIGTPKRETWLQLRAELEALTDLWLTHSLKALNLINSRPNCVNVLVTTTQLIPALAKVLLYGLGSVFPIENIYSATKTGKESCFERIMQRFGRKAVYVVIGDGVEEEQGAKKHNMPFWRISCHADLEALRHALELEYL
Target sequence (Q15475 whole entry, looked up): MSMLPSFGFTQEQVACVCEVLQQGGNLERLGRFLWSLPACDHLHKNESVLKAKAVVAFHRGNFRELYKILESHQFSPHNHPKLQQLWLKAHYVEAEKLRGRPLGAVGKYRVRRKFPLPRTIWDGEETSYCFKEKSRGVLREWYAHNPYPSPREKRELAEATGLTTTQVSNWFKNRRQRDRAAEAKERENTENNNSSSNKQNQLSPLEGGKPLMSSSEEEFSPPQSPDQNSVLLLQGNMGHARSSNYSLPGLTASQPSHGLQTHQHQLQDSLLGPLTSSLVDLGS
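Compounds are tested against tagged Six1 and Eya2 proteins bridged by glutathione donor and nickel acceptor beads; after a one-hour incubation at 37 °C without light, AlphaScreen emission is recorded.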
Starred values were filed as active, the others as inactive; ? = inconclusive; / = not tested or not shown; & = joins results of further samples; [ ] = another dose, or the depositor's remark. An excerpt; the hit share may differ from the screen's.

#1 O=c1c2ccccc2nc(/C=C/c2ccccc2O)n1-c1ccc(Br)cc1
#2 CCCCCc1nc2ccccc2c(=O)n1-c1ccc(C)cc1
#3 CCN(CC)CCSc1nc2ccccc2c(=O)n1-c1ccc(Cl)cc1
#4 O=c1c2ccccc2nc(/C=C/c2ccccc2)n1-c1ccccc1F
#5 COc1ccc(NC(=O)c2cccn(Cc3ccc(Cl)cc3)c2=O)c(OC)c1
#6 Cc1ccc(OCC(=O)N2CCN(CCc3ccncc3)CC2)cc1C
#7 CCOc1ccc2nc(NC(=O)c3cccn(Cc4ccc(C)cc4)c3=O)sc2c1
#8 O=C(Cn1cc(C(=O)c2ccccc2)c2ccccc21)Nc1ccc(Br)cc1
compound no.	1	2	3	4	5	6	7	8
TRPV1 potentiator	/	/	/	/	/	/	/	/
PINK1 expr mod	13%	-0.2%	1.5%	0.7%	0.0%	1.5%	0.5%	1.1%
Sfp inh	/	/	/	/	/	/	/	/
CtBP-E1A blk	/	/	/	/	/	/	/	/
Six1-Eya2 blk	/	/	/	/	/	/	/	/

Compound profiles (already shown). Order of values: TRPV1 potentiator, PINK1 expr mod, Sfp inh, CtBP-E1A blk, Six1-Eya2 blk
O=C(Cn1cc(C(=O)c2ccccc2)c2ccccc21)Nc1ccc(Br)cc1 as listed: /, 1.1%, /, /, /
O=c1c2ccccc2nc(/C=C/c2ccccc2O)n1-c1ccc(Br)cc1 as listed: /, 13%, /, /, /
CCOc1ccc2nc(NC(=O)c3cccn(Cc4ccc(C)cc4)c3=O)sc2c1 as listed: /, 0.5%, /, /, /
COc1ccc(NC(=O)c2cccn(Cc3ccc(Cl)cc3)c2=O)c(OC)c1 as listed: /, 0.0%, /, /, /
CCCCCc1nc2ccccc2c(=O)n1-c1ccc(C)cc1 as listed: /, -0.2%, /, /, /

Other structures
#9 COc1cccc(/C=C/c2nc3ccccc3c(=O)n2-c2ccc(Cl)cc2)c1OC
#10 O=C1CC(c2ccc(C(F)(F)F)cc2)c2c(c3ccccc3oc2=O)O1 (stereo not given)
#11 Cc1cccc(-n2c(/C=C/c3c[nH]c4ccccc34)nc3ccccc3c2=O)c1
#12 Cc1c(Cl)cccc1NC(=O)CN1C(=O)C(C)N=C(c2ccccc2)c2ccccc21 (stereo not given)
#13 Cc1ccc(-n2c(/C=C/c3cc(Br)cs3)nc3ccccc3c2=O)cc1C
#14 CCn1c(CN2CCN(C)CC2)nc2ccccc21
#15 COc1ccc(-c2nc(CN3C(=O)CN=C(c4ccccc4)c4ccccc43)c(C)o2)cc1OC
#16 O=C(COc1ccccc1Cl)N1CCN(CCc2ccncc2)CC1
compound no.	9	10	11	12	13	14	15	16
TRPV1 potentiator	/	/	/	/	/	/	/	/
PINK1 expr mod	2.8%	-0.6%	12%	6.4%	-0.7%	0.1%	-1.2%	0.6%
Sfp inh	/	/	/	/	/	/	/	/
CtBP-E1A blk	/	/	/	/	/	/	/	/
Six1-Eya2 blk	/	/	/	/	/	/	/	/

#17 Cc1ccc(C(=O)Nc2ccccc2)cc1S(=O)(=O)N1CCCC1
#18 N#Cc1cc2c(nc1SCC(=O)Nc1ccc(F)c(Cl)c1)C1CCN2CC1
#19 O=C1CC(c2ccc(Br)cc2)c2c(c3ccccc3oc2=O)O1 (stereo not given)
#20 O=C(CI)c1ccc(Cl)cc1
#21 CCOC(=O)C1C(C=C(C)C)C1(C)C (stereo not given)
#22 c1ccc(N2CC3(CCNCC3)C2)nc1
#23 CC(C)c1ccc2c(c1O)CCC1C3=C(CC[C@]21C)C(=O)OC3 (stereo not given in full)
#24 CC(C)CN1CCCC2(CCN(C(=O)c3ccncc3)CC2)C1
compound no.	17	18	19	20	21	22	23	24
TRPV1 potentiator	/	/	/	/	/	/	/	/
PINK1 expr mod	0.9%	-1.1%	-1.2%	1.2%	-0.1%	-0.8%	-1.2%	-0.8%
Sfp inh	/	/	/	/	5%	-22%	1%	20%
CtBP-E1A blk	/	/	/	/	/	/	/	/
Six1-Eya2 blk	/	/	/	/	/	/	/	/

#25 C=C1CC2C(CC[C@]3(C)C(=O)CCC23)[C@]2(C)C=CC(=O)C=C12 (stereo not given in full)
#26 O=C(Nc1cccc(F)c1)N1CCCC2(CCN(C(=O)Oc3ccccc3)CC2)C1
#27 CN1CCCC2(CCN(C(=O)c3ccncc3)CC2)C1
#28 CN1CCCC2(CCN(C(=O)Oc3ccccc3)CC2)C1
#29 O=C(Oc1ccccc1)N1CCC2(CCCN(Cc3nccs3)C2)CC1
#30 CN1CCC2(CC1)CCN(C(=O)c1ccco1)CC2
#31 CC(C)CN1CC[C@@]2(CCCN(C(=O)Oc3ccccc3)C2)C1
#32 CCCN(CCC)CCc1c[nH]c2ccc(C(N)=O)cc12
compound no.	25	26	27	28	29	30	31	32
TRPV1 potentiator	/	/	/	/	/	/	/	/
PINK1 expr mod	1.1%	-1.0%	-1.2%	-0.1%	0.6%	0.0%	0.0%	0.2%[153 µM]
Sfp inh	5%	9%	31%[activator]	5%	11%	5%	-4%	32%
CtBP-E1A blk	/	/	/	/	/	/	/	/
Six1-Eya2 blk	/	/	/	/	/	/	/	/

Next section, overlapping the part above by four compounds.
#29 O=C(Oc1ccccc1)N1CCC2(CCCN(Cc3nccs3)C2)CC1
#30 CN1CCC2(CC1)CCN(C(=O)c1ccco1)CC2
#31 CC(C)CN1CC[C@@]2(CCCN(C(=O)Oc3ccccc3)C2)C1
#32 CCCN(CCC)CCc1c[nH]c2ccc(C(N)=O)cc12
#33 C[C@@]12CCC(Cl)C[C@H]1CCC1C2CC[C@]2(C)C(=O)CCC12 (stereo not given in full)
#34 C[C@]12CC[C@H](O)C[C@H]1CCC1C2CC[C@]2(C)[C@@H](c3ccc(=O)oc3)C[C@H]3O[C@]132 (stereo not given in full)
#35 OCC1OC(n2cnc3c(Cl)ncnc32)C(O)C1O (stereo not given)
#36 CCc1cccc(C)c1N(C(=O)CCl)C(C)COC (stereo not given)
#37 O=C(CC[N+](=O)[O-])OCC1OC(O)C(OC(=O)CC[N+](=O)[O-])[C@@H](OC(=O)CC[N+](=O)[O-])C1OC(=O)CC[N+](=O)[O-] (stereo not given in full)
#38 C/C=C(/C)C(=O)OC1CC[C@]2(C)C3CCC4[C@]5(O)CC(O)[C@]6(O)C(CN7CC(C)CCC7[C@]6(C)O)[C@]5(O)C[C@@]42O[C@]13O (stereo not given in full)
#39 O=S1OCC2C(CO1)C1(Cl)C(Cl)=C(Cl)C2(Cl)C1(Cl)Cl (stereo not given)
#40 CCCCCCC(C)OC(=O)COc1ccc(Cl)cc1Cl (stereo not given)
compound no.	29	30	31	32	33	34	35	36	37	38	39	40
TRPV1 potentiator	/	/	/	/	/	/	/	/	/	/	/	/
PINK1 expr mod	0.6%	0.0%	0.0%	0.2%[153 µM]	4.2%	-1.2%	3.4%	-2.0%	1.0%	-0.6%	1.1%	-1.7%
Sfp inh	11%	5%	-4%	32%	5%	0%	32%[activator]	13%	-6%	2%	-7%	-6%
CtBP-E1A blk	/	/	/	/	/	/	/	/	/	/	/	/
Six1-Eya2 blk	/	/	/	/	/	/	/	/	/	/	/	/

#41 C[C@@]12CCC(OS(=O)(=O)O)C[C@@H]1CCC1C2CC[C@]2(C)C(=O)CCC12 (stereo not given in full)
#42 CC(C)CN1CCC2(CC1)CCN(S(C)(=O)=O)CC2
#43 c1cc(CN2CC3(CCNCC3)C2)ccn1
#44 CN1C(=O)CCS(=O)(=O)C1c1ccc(Cl)cc1 (stereo not given)
#45 O=C(Nc1cccc(F)c1)N1CCC2(CC1)CCN(C(=O)Oc1ccccc1)CC2
#46 COc1cc2c(cc1OC)[C@@H]1C(=O)c3ccc(OC)c(CC=C(C)C)c3OC1CO2 (stereo not given in full)
#47 CCC(C)C(=O)c1c(O)c(C)c2oc3c(C)c(O)c(C(=O)C(C)CC)c(O)c3c2c1O (stereo not given)
#48 C=C(C)C1Cc2c(ccc3c2OC2COc4cc(OC)c(OC)cc4C2C3=O)O1 (stereo not given)
compound no.	41	42	43	44	45	46	47	48
TRPV1 potentiator	/	/	/	/	/	/	/	/
PINK1 expr mod	0.8%	0.6%	-0.4%	1.2%	0.1%	20µM*	16µM*	?
Sfp inh	30%[activator]	19%	-11%	19%&4%	15%	?	-7%	?
CtBP-E1A blk	/	/	/	/	/	/	/	/
Six1-Eya2 blk	/	/	/	/	/	/	/	/

#49 O=C(Nc1ccccc1)N1CCCC2(CCN(C(=O)Oc3ccccc3)CC2)C1
#50 Clc1ccc(C(c2ccc(Cl)cc2)C(Cl)(Cl)Cl)cc1
#51 CC(C)NC(=O)N1CCC2(CCNCC2)CC1
#52 COc1ccc(C2Oc3c(I)c(OC)cc(OC)c3CC2O)cc1OC (stereo not given)
#53 Cc1ccccc1-n1c(/C=C/c2ccc(N(C)C)cc2)nc2ccccc2c1=O
#54 Cc1ccc(C(O)(C(=O)OC(C)C)C(O)c2ccc(F)cc2)cc1 (stereo not given)
#55 COOCC1(C(=O)OC)C[C@H](c2ccc(OC)cc2)N(Cc2ccccc2OC)[C@@H]1c1ccccc1C (stereo not given in full)
compound no.	49	50	51	52	53	54	55
TRPV1 potentiator	/	/	/	/	-9	/	/
PINK1 expr mod	0.3%	4.1%	0.0%	-0.6%	2.8%	/	/
Sfp inh	11%	-9%&-23%	8%	-16%	/	/	/
CtBP-E1A blk	/	/	/	/	/	-7	-26
Six1-Eya2 blk	/	/	/	/	/	2	-3
